# HIV Env fusion: inhibitors of HIV-1 Env-driven cell-cell fusion, primary screen, HeLa-JRFL effector, CEM21 target cells, luciferase; inhibition, % at 12.3 µM; 360,000 tested, 1.1% active; AID 651610, 2012;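 active = mean replicate inhibition score of at least 50 and every replicate individually at or above 50; inconclusive = only one of the two criteria met; inactive = mean below 50 and not all replicates reaching 50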;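 also: 0% = plate neutral controls and 100% = maraviroc near 300 nM; one replicate is shown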
# MT1-MMP act inh: blockers of MT1-MMP proenzyme processing, primary screen, HT1080 RFP-PRO-GFP cells, GFP/RFP fluorescence. GFP/RFP ratio change, % at 20 µM. Matrix metalloproteinase-14 (Homo sapiens), P50281. 360,000 tested, 0.061% active. GFP/RFP ratio fluorescence, overnight; percent of plate control window, DMSO zero;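 active = GFP/RFP ratio change of at least 30% with cell ATP level not reduced by more than half and red fluorescence within 50% of control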; also: strong numbers were not always called active
#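 Material: RFP-PRO-GFP reporter HT1080 cells. Dosing: single-point 20 µM compound, 1% DMSO. Controls: DMSO and RFP-L50D-GFP cell wells. Timing: cells overnight before dosing, compound overnight, 37 °C, 5% CO2. Measure: GFP/RFP fluorescence ratio.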
# Rce1 inh: yeast Rce1p protease inhibitors, primary screen, biochemical, fluorescence, cell-free homogeneous; AID 2563, 2010; yeast membranes, quenched prenylated peptide cleavage fluorescence; calls only; CAAX prenyl protease 2 (Saccharomyces cerevisiae (strain ATCC 204508 / S288c)), Q03530; 290,000 tested, 0.27% active;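 active = fall in fluorescence gain of 50% or more versus controls, with final raw signal at or below 3038400; inconclusive = same 50% fall but final raw signal above 3038400; inactive = fall in fluorescence gain under 50%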;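 also: plate controls were neutral control wells for no effect and wells lacking membranes for full effect; tested at 10 µM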
# Target sequence (Q03530 whole entry, looked up): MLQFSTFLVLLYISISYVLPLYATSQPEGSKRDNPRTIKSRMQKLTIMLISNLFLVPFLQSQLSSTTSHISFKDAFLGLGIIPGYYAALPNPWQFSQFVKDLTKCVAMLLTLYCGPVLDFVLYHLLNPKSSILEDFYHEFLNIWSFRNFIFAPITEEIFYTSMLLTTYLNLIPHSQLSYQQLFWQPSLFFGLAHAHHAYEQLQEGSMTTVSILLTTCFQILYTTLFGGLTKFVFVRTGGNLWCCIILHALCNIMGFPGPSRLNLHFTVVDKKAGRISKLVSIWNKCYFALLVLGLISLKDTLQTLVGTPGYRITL
# eIF4H inh: human eIF4H binding inhibitors, primary screen, translation initiation inhibitor project, biochemical, uHTS, fluorescence polarization; eIF4H fluorescence polarization binding assay; AID 2012, 2009; inhibition, % at 35 µM; 290,000 tested, 0.94% active;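 active = 50% or more with normal probe brightness, or confirmed in later tests; inconclusive = above 50% with abnormal brightness, or retests that disagree; inactive = below 50% or failed in later tests; about a fifth of its hits are not listed in these tables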;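 also: calls also rest on retests at 20 µM and on dose response follow-up; 0% = protein and probe with vehicle and 100% = probe without protein; strong numbers were not always called active; many hits fall short of the cut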
# Yeast UUG start: modulators of yeast start codon fidelity, primary screen, whole organism, S. cerevisiae, single point, plate reader; 350,000 tested, 0.13% active; S. cerevisiae UUG-firefly luciferase reporter, luminescence/redox ratio; activity score, % at 18.7 µM; AID 602363, 2012;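 active = replicate mean at a twofold rise or more, about +100% in these data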;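 also: firefly luciferase made from a UUG start codon reports start codon fidelity; reporter light over untreated wells divided by growth signal over untreated wells; some hits fall short of that in this replicate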
# CSC inhib: cancer stem cell viability inhibitors, primary screen, luminescence; 300,000 tested, 1.1% active; AID 2717, 2010; cancer stem cell-like cells viability; inhibition, % at 7.5 µM;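 active = mean at 75% or more and at least half the replicates too; inconclusive = mean and replicates disagree; tested in HMLE shEcad cells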;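 also: 0% = median of negative and 100% = median of positive control wells; the first replicate is given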
# PABP polyA inh: PABP poly(A) RNA binding inhibitors, primary screen, biochemical, fluorescence polarization, uHTS; inhibition, % at 35 µM; 290,000 tested, 1% active; AID 2014, 2009;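 active = 50% or more with normal probe brightness, or confirmed in later tests; inconclusive = above 50% with abnormal brightness, or retests that disagree; inactive = below 50% or failed in later tests; about a fifth of its hits are not listed in these tables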;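 also: calls also rest on retests at 20 µM and on dose response follow-up; controls were probe without protein and protein plus probe with vehicle; some compounds called inactive have numbers as strong as hits; many hits fall short of the cut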
# eIF4H inh retest: recorded beside eIF4H inh, whose call it bears; inhibition, %; compound at 20 µM; confirmation average;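 mean of two retest wells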
# PABP polyA inh retest: second read-out of PABP polyA inh, no call of its own (marks repeat the call); inhibition, %; compound at 20 µM; confirmation repeats;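 mean of two retest wells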
# MT1-MMP act inh RFP: also measured in MT1-MMP act inh; calls as there; RFP signal change, %; measured here: RFP expression control read;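 0 = vehicle wells; hits needed this value within 50% of zero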
# The depositor's hits bear a star; i = inactive; ? = inconclusive; nt = no result given. Some of the compounds tested; the hit share may differ from the screen's.
SMILES,HIV Env fusion,MT1-MMP act inh,MT1-MMP act inh RFP,Rce1 inh,eIF4H inh,Yeast UUG start,CSC inhib,PABP polyA inh,others
CN(C)CCN=Cc1c(O)n(Cc2ccco2)c(=O)[nH]c1=O,8,0,2,i,-5,-1,-5,11,
O=C1NC(c2cc3ccccc3nc2Cl)Nc2ccccc21 (centres undefined),nt,2,4,i,4,-4,8,1,
CNC(=O)O/N=C/c1nn(C(=O)C(C)(C)C)cc1Br,-2,3,3,nt,-9,-20,-3,13,
CCNc1ccc(P(=S)(N(C)C)N(C)C)cc1,nt,5,5,i,-10,-24,-5,-4,
COc1ccc(OC)c(NC(=O)N2C[C@H]3C[C@@H](C2)c2cccc(=O)n2C3)c1,nt,0,5,i,?,-9,-8,2,
Cc1ccsc1C(=O)C1CCCN(Cc2cnc(N(C)C)s2)C1 (centres undefined),nt,nt,nt,i,-3,nt,9,2,
O=C(Nc1nccs1)c1c(O)c2c(n(Cc3ccco3)c1=O)CCCC2,11,-2,-6,i,-4,-8,9,-2,
O=S1(=O)CC2(N3CCOCC3)CCCCCCC21 (centres undefined),nt,-1,0,i,0,-16,nt,-1,
Fc1ccc(Cn2nnnc2C(c2ccc(F)cc2)N2CC=C(c3ccc(F)cc3)CC2)cc1 (centres undefined),-2,4,3,i,2,nt,9,4,
O=C1CC(=O)N(c2cccc(C(F)(F)F)c2)C(=O)N1,-19,-7,5,i,6,-2,-13,-7,
CCOC(=O)c1ccccc1NC(=O)c1c(O)[nH]c(=O)[nH]c1=O,-11,0,1,i,nt,-1,-19,nt,
Cc1cccc(NC(=O)N2C[C@H]3C[C@@H](C2)c2cccc(=O)n2C3)c1,nt,2,5,i,-10,-19,2,-7,
Nc1c2c(nc3ccccc13)CCN(Cc1ccccc1)C2,-13,-10,3,i,?,-27,1,?,
COc1ccc(/C=C/C(=O)c2c(O)n(CCC3=CCCCC3)c(=O)[nH]c2=O)cc1,5,-18,-18,i,65,nt,120*,-6,eIF4H inh retest=6;PABP polyA inh retest=41
COc1ccc(-c2nn(CCC#N)cc2C(=O)Nc2ccc(C(C)=O)cc2)cc1,13,1,4,i,-4,-19,17,-8,
COc1ccc(CN2Cc3cc(-c4ccccc4)ccc3-n3nncc3C2)cc1,-40,2,2,nt,nt,1,nt,nt,
Cc1nc2ccccc2c(=O)n1-c1c(Cl)cccc1Cl,-16,0,4,nt,nt,-9,nt,nt,
CC1(C)CN=C(Nc2ccccc2C(F)(F)F)S1,-25,-3,-1,i,-21,-4,-22,-6,
FC(F)(F)c1ccc2c(c1)NP(=S)(N1CCOCC1)c1nccn1-2 (centres undefined),nt,-2,1,i,-2,-5,-4,-5,
CCN1CCC(NCC2CCCCC2)CC1,-43,1,3,i,0,-11,14,-3,
COc1ccc2c(c1O)[C@]13CCN(C)[C@H](C2)[C@@H]1CCC(=O)C3,-16,-1,2,i,-7,nt,-16,6,
CCOC(=O)c1cc(C)n(CCc2cnc[nH]2)c1C,nt,13,6,i,-6,-37,-5,-2,
CN1C(=O)N(C)C(=O)C(CCc2ccccn2)(CCc2ccccn2)C1=O,nt,9,3,i,10,-27,nt,-8,
O=C(NCc1ccccc1)c1cccn(Cc2cccc(Cl)c2)c1=O,12,-5,-6,i,-2,-8,31,7,
CCCCCn1c(N)c(C(=O)NCCN2CCOCC2)c2nc3ccccc3nc21,nt,-13,0,i,5,11,49,-3,
# (next part)
SMILES,HIV Env fusion,MT1-MMP act inh,MT1-MMP act inh RFP,Rce1 inh,eIF4H inh,Yeast UUG start,CSC inhib,PABP polyA inh,others
CC1(C)CC(=O)C(C=NCCN2CCN(C(=O)Cc3ccccc3)CC2)=C(O)C1,nt,5,3,i,6,-2,-16,-11,
O=CC(Cl)P(=O)(N1CCOCC1)N1CCOCC1 (centres undefined),-2,7,0,i,-1,-18,-11,0,
c1cc(CCN2CCCC2)ccn1,-5,-2,3,i,6,-16,1,18,
COc1cccc(N2C(=O)NC(=O)/C(=C/c3ccc4c5c(cccc35)CC4)C2=O)c1,-17,nt,nt,i,20,nt,2,13,
Cc1c(-c2cccc(Cl)c2)nc2ccccc2c1C(=O)N1CCC2(CC1)OCCO2,6,-3,-7,i,-7,-8,3,7,
COC(=O)C1=C(c2ccc(-c3ccccc3)c(F)c2)C[C@@H]2CC[C@H]1N2C(=O)N1CCCCC1,32,2,-30,nt,nt,-10,68,nt,
COc1cc(OC)c(OC)cc1CN1CCN(C(=O)Cc2ccccc2)CC1,1,6,1,i,6,-1,-19,26,
Cc1ccc(N)c(C(=O)c2ccc(Br)cc2)c1,3,-3,1,i,10,nt,13,14,
CCC1C2Cn3c(nc4ccccc43)C1N(C)O2 (centres undefined),-11,2,3,i,2,-21,-5,5,
N#CC(C#N)=Cc1ccc(-c2ccccc2)o1,nt,nt,nt,i,?,nt,-11,-11,
Cc1cc(OC(C)C(=O)NCc2ccncc2)c2c3c(c(=O)oc2c1)CCCC3 (centres undefined),3,3,-2,i,nt,-14,10,nt,
CC(=NCCC1=CCCCC1)c1c(O)n(C)c(=O)n(C)c1=O,11,-1,-4,i,-5,-22,4,-15,
COC(=O)C1=C(c2cccc(OCc3ccccc3)c2)C[C@@H]2CC[C@H]1N2C(=O)NCCN1CCOCC1,-19,2,3,nt,nt,-3,10,nt,
Cc1[nH]c2c(C(F)(F)F)cccc2c1CCN,nt,-1,1,i,-1,nt,-11,9,
CCC(=NCc1ccco1)c1c(O)[nH]c(=O)[nH]c1=O,nt,1,1,i,-2,nt,-9,3,
Cc1ccc(S(=O)(=O)N2CCC(C(=O)N3CCC4(CC3)OCCO4)CC2)cc1,-15,-1,-1,i,-2,1,10,2,
CC(C(=O)c1c[nH]c2ccccc12)N1CCc2ccccc2C1 (centres undefined),nt,-39,-1,nt,4,-12,-5,15,
Fc1cccc(CNCCc2c[nH]c3ccccc23)c1,-9,2,-3,i,5,-12,-9,0,
Cn1c(O)c(C=NC2CCN(Cc3ccccc3)CC2)c(=O)n(C)c1=O,-1,-2,6,i,nt,-7,2,nt,
ClCCN1CCN(c2ccnc3cc(Cl)ccc23)CC1,-18,-12,-7,i,31,-12,-15,41,
COc1ccc(CCNC2(C#N)CCCCC2)cc1OC,-45,-4,0,nt,nt,2,nt,nt,
Cc1ccccc1-c1ccc2c(c1)CNCc1cnnn1-2,-18,5,4,nt,nt,-11,nt,nt,
CCN1CCN(c2ccc(N)cc2C)CC1,-5,1,1,i,5,nt,-11,-16,
COC(=O)C1=C(c2ccc(OC(F)(F)F)cc2)C[C@@H]2CC[C@H]1N2C(=O)N1CCC(O)CC1,27,5,-7,nt,nt,-18,-3,nt,
Cc1ccc(OCCn2cccc2/C=C2/C(=O)NC(=O)N(Cc3ccco3)C2=O)cc1,-18,-17,14,i,47,nt,24,21,
# The list continues.
SMILES,HIV Env fusion,MT1-MMP act inh,MT1-MMP act inh RFP,Rce1 inh,eIF4H inh,Yeast UUG start,CSC inhib,PABP polyA inh,others
O=C1CC=C2C3CC4N(CCC45c4ccccc4N1C25)CC3=CCO (centres undefined),25,1,1,nt,nt,-13,nt,nt,
O=C(Cn1c2c(c(-c3ccccc3Cl)cc1=O)CCC2)N1CCC2(CC1)OCCO2,nt,5,10,i,-4,13,-8,4,
COC(=O)c1cn(Cc2ccc(F)cc2)c2ccccc12,4,1,4,nt,nt,-4,nt,nt,
CC1(C)OC(c2ccccc2)=C/C(=C/C=C2C(=O)NC(=S)NC2=O)O1,-4,nt,nt,i,?,nt,-10,-1,
O=C(C[N+]12CCC(CC1)C(CO)C2)c1ccc(Br)cc1 (centres undefined),-2,3,7,i,-5,-9,-4,-9,
O=C1C2CCCN2C(c2cccnc2)N1c1nccs1 (centres undefined),5,3,4,i,3,-16,5,-3,
CN(C)C(=O)Oc1ccnc2cc(Cl)ccc12,6,2,-3,i,5,-21,-5,1,
COc1ccc(CC(=O)N2C[C@H]3C[C@@H](C2)c2cccc(=O)n2C3)cc1,nt,1,3,i,2,-11,0,8,
O=c1[nH]c(=S)n(-c2cccc(Cl)c2)c(O)c1C=NCCN1CCNCC1,13,-4,0,i,-21,-3,-11,0,
CCOC(=O)C1C(=O)NC2(C)CC1c1cc(OC)ccc1O2 (centres undefined),nt,-2,1,i,4,nt,-8,6,
COc1ccc(/C=C/C(=O)NC(=S)N2C[C@H]3C[C@H](C2)c2cccc(=O)n2C3)cc1,nt,0,4,i,-8,-25,-5,8,
Cc1ccnc(-n2c(C)cc(C=C3C(=O)N(C)C(=S)N(C)C3=O)c2C)c1,-58,-12,13,i,44,-3,-12,25,
C[C@H]1O[C@@H](OC2CC[C@]3(C=O)[C@H]4CC[C@]5(C)[C@@H](C6=CC(=O)OC6)CC[C@]5(O)[C@@H]4CC[C@]3(O)C2)CC2OC(C)(C)OC21 (some centres undefined),82*,-51,-39,i,6,nt,101*,-6,
CCOC(=O)C1=C(C)OC(N)=C(C(=O)OC)C12C(=O)Nc1ccc(Br)cc12 (centres undefined),27,-7,8,i,3,-7,-1,-6,
COc1ccc(/C=C/C2=CCN(C)CC2)cc1,-8,-10,-4,i,1,-18,55,1,
CCN1CCN(Cc2ccc(C)cc2C)CC1,-24,4,3,i,-2,-17,11,35,
CCc1ccc(C(=O)C23CN4CN(CN(C4)C2)C3)cc1,nt,-1,2,nt,-7,-24,4,1,
COc1ccc(CN2CC3CC(C2)c2cccc(=O)n2C3)cc1OC (centres undefined),nt,-4,-4,i,1,-9,-8,8,
O=c1[nH]c(=S)n(C2CC2)c(O)c1C=NCC1CCCO1 (centres undefined),7,-1,1,i,-3,nt,-2,-3,
Cn1c(O)c(C(=O)c2ccccc2)c(=O)n(C)c1=O,nt,6,3,i,56*,-4,-12,54*,
Cc1cccc(C)c1NC(=O)CN(C)CC(=O)Nc1ccc(C#N)c(Cl)c1,-9,0,-5,i,-3,7,-18,5,
N#CCCn1cc(C(=O)Nc2ccc(F)cc2)c(-c2ccc([N+](=O)[O-])cc2)n1,2,7,0,i,-1,nt,-5,-2,
O=C(O)c1ccc([N+](=O)[O-])c([N+](=O)[O-])c1,2,-1,2,nt,nt,-14,nt,nt,
C[C@H]1CCC[C@@H](O)CCC/C=C/c2cc(O)cc(O)c2C(=O)O1,-95,-14,-16,i,-11,-8,nt,1,
CCCCCCN1CCN(c2ccc(Cl)cc2)CC1,10,1,7,i,16,nt,41,-10,
O=c1[nH]c(=S)n(C2CC2)c(O)c1C=Nc1ccc2c(c1)OCO2,-3,2,5,i,68*,nt,-6,42,eIF4H inh retest=92*;PABP polyA inh retest=39
Cc1cc(N)n(C2CCN(C)CC2)n1,-27,-9,1,i,-3,-6,-9,-13,
CN1CCC(O)(c2ccc(Cl)cc2)C(C(=O)c2ccc(Cl)cc2)C1 (centres undefined),10,-3,2,i,8,nt,7,7,
CC(=O)N1CCC2(CC1)CC(=O)c1cc(OCC(=O)N3CCC4(CC3)OCCO4)ccc1O2,-1,5,-1,i,10,nt,-9,6,
O=C(c1cnn2c(C(F)(F)F)cc(-c3ccccc3)nc12)N1CCC2(CC1)OCCO2,-55,-2,0,i,-2,-18,-7,-4,
